Screens deposited in PubChem by ICCB-Longwood Screening Facility, Harvard Medical School.
HCMV NEC inh = inhibitors of HCMV UL50-UL53 nuclear egress complex interaction; AID 1918969; inhibition, % (concentration not given with the values); 190,000 compounds, 0.15% hits; HTRF UL50-UL53 interaction, normalized percent inhibition;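 active = both replicates at 50% or more, plus weaker picks with an unusually low signal ratio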;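 note: stock transfer was 100 nL into about 20 µL; 0% = negative control wells and 100% = wells with untagged competitor protein; inactives centre near -12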
Sa growth inh = inhibitors of Staphylococcus aureus growth at 42 °C; S. aureus RN4220 growth, OD600, 20 h; stronger effect = lower value; relative growth, % (no concentration beside the values); 170,000 compounds, 0.53% hits;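 active = growth at 42 °C up to 50% and 20 or more points under that at 30 °C, or under 10% at both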;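 note: 300 nL library stock went into each well; scaled to the means of positive and negative controls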
GIV-Gai inh = GIV-Galpha-i interaction inhibition; Galpha-i3/FITC-GIV peptide fluorescence polarization, 90 min; stronger effect = lower value; scaled: aluminum fluoride 0%, vehicle 100%; percent of control (FP), % (test concentration not listed); P08753; 210,000 compounds, 0.42% hits;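 active = replicate mean at 85% of control or lower, very high polarization wells dropped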;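 note: wells of about 15 µL received 100 nL stock; the first replicate is given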
Target sequence (P08753 whole entry, looked up): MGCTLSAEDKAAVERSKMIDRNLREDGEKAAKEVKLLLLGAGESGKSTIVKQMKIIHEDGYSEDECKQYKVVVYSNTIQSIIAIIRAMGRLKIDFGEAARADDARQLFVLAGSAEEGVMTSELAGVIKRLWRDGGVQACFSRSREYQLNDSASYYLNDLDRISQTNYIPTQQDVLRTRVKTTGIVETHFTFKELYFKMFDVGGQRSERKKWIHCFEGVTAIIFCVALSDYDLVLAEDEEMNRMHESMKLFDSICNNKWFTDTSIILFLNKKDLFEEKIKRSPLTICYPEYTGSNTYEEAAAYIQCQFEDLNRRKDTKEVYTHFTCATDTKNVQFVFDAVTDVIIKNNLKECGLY
Sa growth inh second temp = second read-out of Sa growth inh, no call of its own (marks repeat the call); relative growth, %; measured here: growth at 30 °C;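 optical density after 20 h as mean of two plates; 100% = untreated growth and lower means inhibition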
* = called active by the depositor; / = not tested or not shown; & = joins results of further samples. Hits appear at their usual frequency; any-hit rate near 0.79%.

SMILES | HCMV NEC inh | Sa growth inh | Sa growth inh second temp | GIV-Gai inh
CCCCOc1cccc(N/C=C(/C#N)c2nc(-c3cc4cc(Br)ccc4oc3=O)cs2)c1 | -17.4 | / | / | 103.7
CCCS(=O)(=O)NCCc1sc2nc(-c3ccc(F)cc3)nn2c1C | / | 143.9 | 91.2 | 99.6
CC(C)NC(=O)CCCCn1c(=O)c2ccccc2n(CC(=O)NCc2ccc(F)cc2)c1=O | 0.7 | / | / | 109.4
COc1cc(/C=N/N2CCCCC2)ccc1OC(=O)c1cccnc1 | -9.5 | 98.8 | 102.2 | /
Cc1[nH]c(C(=O)N2CCC(CC(=O)N3CCCC3)CC2)c(C)c1C | -3.9 | / | / | 104.7
CNC(=S)N(CCc1c(C)[nH]c2ccccc12)Cc1cc(OC)c(OC)c(OC)c1 | / | 113.7 | 74.6 | 100.4
c1ccc(-c2ccc3ccccc3n2)nc1 | -39.9 | 62.8 | 31.5 | /
CC1CN(C2CCCCC2)c2nc3c(c(=O)n(CCN4CCCCC4)c(=O)n3C)n2C1 (stereo not given) | -24.1 | / | / | 96.0
CCOc1ccccc1C1C=CCC1 (stereo not given) | -30.0 | 96.7 | 83.7 | /
c1ccc(CSc2ccc3nnc(-c4ccccn4)n3n2)cc1 | / | 93.2 | 75.0 | 103.9
COc1cc(N/C=C(\C#N)c2nc(-c3cc4cc(Br)ccc4oc3=O)cs2)c(OC)cc1Cl | -2.3 | / | / | 106.9
CCOC(=O)c1c(C)[nH]c(C)c1S(=O)(=O)NCC(=O)NCc1ccccc1C | / | 101.5 | 97.7 | 100.9
CC(=O)Nc1nonc1N1CCCC1=O | -6.8 | 108.3 | 88.5 | /
COc1ccc(CCNC(=O)CCCn2c(=O)c3ccccc3n(CC(=O)Nc3cc(Cl)ccc3C)c2=O)cc1OC | -4.5 | 104.5 | 91.9 | 107.5
CSc1nc2ccccc2n1CN(C)Cc1ccc(Cl)s1 | -38.4 | 75.0 | 90.6 | /
CNC(=O)C1CCC(Cn2c(=O)c3sccc3n(CC(=O)N3CCCCC3C)c2=O)CC1 (stereo not given) | / | 97.4 | 98.2 | 102.0
COc1ccc(COC(=O)C2=C(C)NC(=O)CC2c2cccc(Cl)c2Cl)cc1 (stereo not given) | 1.6 | 118.9 | 97.4 | 104.1
CC1CCN(CCNS(=O)(=O)c2csc(C(N)=O)c2)CC1 | -22.8 | 97.9 | 89.8 | 105.0
CN=C1S/C(=C\c2ccc(N3CCCC3)cc2)C(=O)N1C | -47.2 | 50.7 | 22.2 | 177.8
COC(CNC(=O)c1ccc2c(c1)ncn2C1CCCCCC1)OC | / | 108.8 | 88.0 | 94.2
CCn1cnc2cc(NC(=O)c3cc(OC)c(OC)c(OC)c3)ccc21 | / | 99.3 | 83.9 | 100.3
CCC(C(=O)NCC1CCCO1)c1ccccc1 (stereo not given) | -5.2 | 95.7 | 86.7 | /
COc1ccc(Cn2ccc3nc(C)c(C(=O)Nc4cc(C)cc(C)c4)cc3c2=O)cc1 | / | 87.4 | 84.3 | 101.7
O=C(CNC(=O)c1ccc(F)cc1)OCc1cc(=O)n2ccsc2n1 | -25.7 | 89.6 | 88.0 | 107.4&97.9
Cc1cc2c(c(=O)[nH]1)C(c1ccncc1)C(C#N)=C(N)O2 (stereo not given) | -31.8 | 86.1 | 81.7 | 98.1
Cc1oc(-c2ccc(OC(C)C)cc2)nc1CSc1nc(-c2cccnc2)cc(=O)[nH]1 | -38.6 | / | / | 104.5
CC1=C(C(N)=O)C(c2cccc(O)c2)n2ncnc2N1 (stereo not given) | / | 102.4 | 90.5 | 101.5
CCCCn1c(SCC(=O)c2ccc(O)c(O)c2)nc2ccsc2c1=O | -14.0 | 38.4 | 19.9 | 102.2
O=C(c1cc(-c2ccc(Cl)cc2)n[nH]1)N1CCCC1 | 6.2&-0.3 | 86.6 | 90.5 | 110.4&100.9
O=C(O)c1sccc1S(=O)(=O)N1CCN(c2ncc(C(F)(F)F)cc2Cl)CC1 | -31.8 | 89.5 | 83.9 | 97.3
CCOC(=O)c1ccc(Cl)c(N=Cc2ccccc2O)c1 | -0.7 | 88.6 | 91.1 | 106.7
COc1ccc2c(c1)CC(C(=O)NCCN1CCN(c3cccc(Cl)c3)CC1)CO2 (stereo not given) | / | 71.2 | 32.8 | 101.9
CCCC(=O)N1CCN(c2ccc(NC(=O)c3cccc(C)c3OC)cc2Cl)CC1 | -10.1 | 103.4 | 85.0 | 101.9
CC1=C(C(=O)C(F)(F)F)CCC(=O)N1CCCN1CCCC1=O | -14.3 | 73.7 | 89.8 | /
CC(C)CNC(=O)c1ccc2c(=O)n(-c3cccc(F)c3)c(SCC(=O)c3c[nH]c4ccccc34)nc2c1 | -11.4 | / | / | 115.6
Cc1noc(C)c1CN1C(=O)NC2(CCCc3sccc32)C1=O (stereo not given) | -9.7 | 89.3 | 95.0 | /
O=C(CN1C(=O)CSc2ccc(S(=O)(=O)N3CCOCC3)cc21)N1CCc2ccccc2C1 | -6.8 | / | / | 101.3
COc1ccc(Cl)cc1NC(=O)Nc1cccc(-c2noc(C3CCC3)n2)c1 | -25.3 | / | / | 107.9
CCc1ccc(NC(=O)C(C)n2nnc3sc(-c4ccccc4)cc3c2=O)cc1 (stereo not given) | -0.8 | 99.0 | 95.9 | 107.5
COc1ccc(C2=N/C(=C\C(Br)=C\c3ccccc3)C(=O)O2)cc1OC | -1.9 | / | / | 105.6
Cc1cc(-c2ccc(C)c(S(=O)(=O)Nc3cccnc3)c2)on1 | -20.7 | / | / | 105.4
Cc1cc(C(=O)N2CCCCCC2)cs1 | -8.6 | 130.2 | 104.0 | 107.9
O=C(c1cccs1)N1CCN(C/C=C/c2ccccc2)CC1 | -14.6 | 109.0 | 81.7 | 102.5
COc1ccc(NC(=O)C2CC2)cc1OC1CCCC1 | -15.4 | 91.6 | 86.2 | 97.2
Nc1nc(-c2ccccc2)nn1C(=O)C1CC1 | -13.4 | / | / | 102.1
Cn1cccc1C(=O)OCC(=O)c1cc2ccccc2o1 | -17.5 | 85.4 | 89.8 | /
CC(=O)Nc1c(C(=O)N2CCN(C)CC2)oc2ccccc12 | 6.9 | 97.7 | 107.4 | 100.4
O=C(CC1Oc2ccccc2NC1=O)NCCc1ccccc1 (stereo not given) | 1.0 | 91.0 | 86.8 | 102.3
CN1/C(=C\C(=O)CSc2nnc(-c3ccccc3)o2)C(C)(C)c2ccccc21 | -19.4 | 97.5 | 95.2 | /
CNCc1ccc2ccccc2c1 | -7.3 | 100.2 | 102.6 | /
Nc1nc2nonc2nc1N | -52.3 | / | / | 105.4
CCS(=O)(=O)c1ncc(N(Cc2ccccc2)Cc2ccco2)c(C(=O)Nc2ccccc2C)n1 | -20.0 | 91.6 | 89.6 | 97.9
O=S(=O)(c1ccc(F)c(Cl)c1)N1CCN(Cc2ccc3c(c2)OCO3)CC1 | 20.5 | 106.2 | 101.5 | 108.4
CCCN1C(=O)c2ccc(-c3nc4cc(Cl)ccc4c(=O)o3)cc2C1=O | -9.0 | 100.8 | 95.4 | 106.5
Cc1cc(C)nc(NCC(C)c2ccccc2)n1 (stereo not given) | -6.6 | 79.2 | 81.0 | 100.4
Cc1ccc(CNC(=O)C2(C)CCN(C(=O)NC3COc4ccccc4C3)CC2)cc1 (stereo not given) | 0.2 | / | / | 102.7
CC(C)N(C(=O)c1cccs1)C(C)C | -16.0 | 98.5 | 90.0 | 94.1
CC1CN(C(=O)COC(=O)c2n[nH]c3ccccc23)CC(C)O1 (stereo not given) | -2.7 | 88.7 | 92.5 | /
CC(=O)Nc1ccc2nc(NC(=O)c3cc4ccccc4o3)sc2c1 | 4.8 | 94.5 | 97.6 | 102.1
COc1ccc(C2C(C#N)=C(N)OC3=C2C(=O)CCC3)cc1 (stereo not given) | -12.9 | 86.2 | 96.6 | 101.9

Next structures
SMILES | HCMV NEC inh | Sa growth inh | Sa growth inh second temp | GIV-Gai inh
Cn1nnnc1SCCCNCc1cccc(OCc2ccc(F)cc2)c1 | -7.4 | 87.7 | 84.2 | 110.4
COCCNC(=O)C1CCN(S(=O)(=O)c2ccc3c(c2)CCCN3C(C)=O)CC1 | / | 107.4 | 85.5 | 97.4
O=C1N/C(=C/c2ccc(-c3ccccc3)o2)C(=O)N1Cc1ccc(Br)cc1 | -10.2 | 93.4 | 87.1 | 118.2
O=C(CSCc1nnc(C(=O)Nc2ccc(F)cc2)s1)NC1CCN(Cc2ccccc2)CC1 | -28.7 | / | / | 104.5
CCc1nc(-c2ccc(C(=O)NCC(=O)Nc3ccc(F)cc3)cc2)no1 | -4.3 | / | / | 106.7
O=C(C1CCN(S(=O)(=O)N2CCCCC2)CC1)N1CCCCC1 | / | 112.2 | 89.8 | 102.6
CN(C)C(CNC(=O)c1ccc(Br)cc1)c1ccco1 (stereo not given) | -9.5 | 113.3 | 86.6 | 106.0
CN1CCC(N(C)C(=O)c2ccc(Cl)c(S(=O)(=O)N3CCc4ccccc43)c2)CC1 | 0.9 | 109.2 | 94.8 | /
COc1ccccc1C(=O)Nc1nc(S(=O)(=O)Cc2ccc(F)cc2)ns1 | -22.1 | / | / | 99.1
O=C(CC(C(=O)O)N(Cc1ccccc1)Cc1ccccc1)c1ccc(Cl)cc1 (stereo not given) | -5.3 | 107.5 | 76.5 | /
Cc1ccc(Nc2nc(Oc3ccc(OCCOc4ccccc4)nn3)nc(N(C)C)n2)cc1 | 7.8 | 109.2 | 90.2 | 100.9
COc1ccc(CCn2c3c(c(=S)[nH]c2=O)CCC3)cc1OC | -19.6 | 81.5 | 82.4 | /
CC(C)NC(=O)Nc1ccc2snnc2c1 | 10.2 | 72.3 | 67.4 | 109.5
N#CC(C#N)=C(N)C(C#N)Cc1ccc(Cl)cc1 (stereo not given) | -10.8 | 93.3 | 52.5 | /
CSc1ccc(-c2nc(CSCC(=O)NC(C)C)c(C)o2)cc1 | -23.1 | 87.2 | 85.2 | 107.0
COCCCN[C@H]1CS(=O)(=O)C[C@@H]1S(=O)(=O)c1ccc(F)cc1 | -26.3 | / | / | 100.8
CC(C)N(CCC(=O)c1ccc2ccccc2c1)Cc1ccccc1 | -56.3&-38.3&-43.5&-66.5 | / | / | 94.5
CC1=CC(C)(C)N(C(=O)CSc2nccn2C)c2cc(C)ccc21 | -12.5 | 96.6 | 83.0 | 101.0
CCN1CCN(C2=Nc3c(Cl)cc(Cl)c4cccc2c34)CC1 | -57.2 | 108.2 | 91.7 | /
COc1ccc(C=NCC2(c3ccccc3)CCCC2)c(OC)c1 | / | 94.7 | 77.1 | 97.0

A portion of the results above, as a working copy:
SMILES | HCMV NEC inh | Sa growth inh | Sa growth inh second temp | GIV-Gai inh
Cn1nnnc1SCCCNCc1cccc(OCc2ccc(F)cc2)c1 | -7.4 | 87.7 | 84.2 | 110.4
COCCNC(=O)C1CCN(S(=O)(=O)c2ccc3c(c2)CCCN3C(C)=O)CC1 | / | 107.4 | 85.5 | 97.4
O=C1N/C(=C/c2ccc(-c3ccccc3)o2)C(=O)N1Cc1ccc(Br)cc1 | -10.2 | 93.4 | 87.1 | 118.2

Four entries from above in a different format.
CC(C)NC(=O)Nc1ccc2snnc2c1
  HCMV NEC inh: 10.2; Sa growth inh: 72.3; Sa growth inh second temp: 67.4; GIV-Gai inh: 109.5
N#CC(C#N)=C(N)C(C#N)Cc1ccc(Cl)cc1 (stereo not given)
  HCMV NEC inh: -10.8; Sa growth inh: 93.3; Sa growth inh second temp: 52.5; GIV-Gai inh: /
CSc1ccc(-c2nc(CSCC(=O)NC(C)C)c(C)o2)cc1
  HCMV NEC inh: -23.1; Sa growth inh: 87.2; Sa growth inh second temp: 85.2; GIV-Gai inh: 107.0
COCCCN[C@H]1CS(=O)(=O)C[C@@H]1S(=O)(=O)c1ccc(F)cc1
  HCMV NEC inh: -26.3; Sa growth inh: /; Sa growth inh second temp: /; GIV-Gai inh: 100.8

Other structures follow.
SMILES | HCMV NEC inh | Sa growth inh | Sa growth inh second temp | GIV-Gai inh
COC(=O)c1oc2ccccc2c1O | -18.0&-28.2 | 102.9 | 82.5 | 94.1&106.7
Cc1nc(C(=O)NNc2ccc(F)cc2)c(C(F)(F)F)o1 | 14.5 | 109.5 | 100.6 | 103.6
COc1cc(CC(=O)N2CCN(C(=O)c3cc4cc(Br)ccc4[nH]3)CC2)ccc1O | -25.9 | / | / | 113.5
Cc1nc2c(-c3ccc(F)cc3)c(C)nn2c(C)c1CCC(=O)NCc1ccc(F)cc1 | -26.2 | 97.3 | 92.5 | 100.1
Cc1ccc2c(c1)c1nc3ccccc3nc1n2CC(=O)OCc1ccccc1 | / | 91.7 | 84.8 | 97.9
O=C1CCCC2=C1C(c1ccc(OC(F)F)cc1)C1=C(CCCC1=O)N2 | -14.3 | 83.1 | 95.5 | /
CCc1ccc(NC(=O)Cc2c(C)[nH]n(-c3nc(C)cs3)c2=O)cc1 | -8.3 | / | / | 100.1
C=C(CO)C1Cc2c(ccc3c(=O)c4c(oc23)COc2cc(OC)c(OC)cc2-4)O1 (stereo not given) | -26.1 | 94.3 | 91.2 | /
CCCCOC(=O)c1ccc(NC(=O)Cn2nnc3sc4c(c3c2=O)CCCC4)cc1 | -29.8 | 100.2 | 85.8 | 104.6
c1ccc(COn2c(-c3ccccc3)nc3ncccc32)cc1 | -15.0 | / | / | 110.2
CC(C)NC(=O)Cn1ccn2nc(-c3ccc4c(c3)OCO4)cc2c1=O | -27.5 | / | / | 99.0
Cc1cccc(OCc2nnc(SCC(=O)Nc3ccc(C)cc3C)o2)c1 | 7.2 | 90.4 | 107.7 | 105.6
